From PubChem
Rango release inh – prevents RanGTP from dissociating the Rango-importin beta complex | Biochemical FRET Rango-importin beta, RanGTP-induced dissociation | Potency, µM (doses to about 46.1 µM), inactives show at the top dose activity change, negative = inhibition | actives 0.071% (n = 340,000); active means falling FRET ratio curve, often poorly fitted, with flat reads before Ran was added; inconclusive means other falling curves, or compound fluorescence or quenching; inactive means flat or rising ratio curve;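 further: potency means the concentration at half of the fitted maximal effect; % of control where 0% means no effect; nearly all actives have a fitted effect of over 45% in size; -100% = wells without RanGTP and RCC1; the record marks most hits as doubtful in a second field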
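Two FRET readings bracket the reaction: one 5 min after compound meets Rango–importin beta, another 45 min after RanGTP-RCC1 (0.6 uM Ran, 0.2 uM RCC1, 2 mM GTP) is added. Only the second defines inhibition.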
Rango complex inh – prevents formation of the Rango-importin beta complex | AID 540263 | Potency, µM (series often up to 92.2 µM), inactives show top-dose inhibition of complex formation | Rango CFP/YFP FRET sensor + importin beta, 45 min | actives 0.031% (n = 340,000); active = rising FRET ratio curve, often small or poorly fitted; inconclusive = mostly compound fluorescence or quenching in the first reads; inactive = flat curves in all reads;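 further: potency means the concentration at half of the fitted maximal effect; 0% = DMSO wells and 100% = buffer wells lacking importin beta; nearly all actives have a fitted effect of over 15% in size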
Target sequence (Q14974 whole entry, looked up): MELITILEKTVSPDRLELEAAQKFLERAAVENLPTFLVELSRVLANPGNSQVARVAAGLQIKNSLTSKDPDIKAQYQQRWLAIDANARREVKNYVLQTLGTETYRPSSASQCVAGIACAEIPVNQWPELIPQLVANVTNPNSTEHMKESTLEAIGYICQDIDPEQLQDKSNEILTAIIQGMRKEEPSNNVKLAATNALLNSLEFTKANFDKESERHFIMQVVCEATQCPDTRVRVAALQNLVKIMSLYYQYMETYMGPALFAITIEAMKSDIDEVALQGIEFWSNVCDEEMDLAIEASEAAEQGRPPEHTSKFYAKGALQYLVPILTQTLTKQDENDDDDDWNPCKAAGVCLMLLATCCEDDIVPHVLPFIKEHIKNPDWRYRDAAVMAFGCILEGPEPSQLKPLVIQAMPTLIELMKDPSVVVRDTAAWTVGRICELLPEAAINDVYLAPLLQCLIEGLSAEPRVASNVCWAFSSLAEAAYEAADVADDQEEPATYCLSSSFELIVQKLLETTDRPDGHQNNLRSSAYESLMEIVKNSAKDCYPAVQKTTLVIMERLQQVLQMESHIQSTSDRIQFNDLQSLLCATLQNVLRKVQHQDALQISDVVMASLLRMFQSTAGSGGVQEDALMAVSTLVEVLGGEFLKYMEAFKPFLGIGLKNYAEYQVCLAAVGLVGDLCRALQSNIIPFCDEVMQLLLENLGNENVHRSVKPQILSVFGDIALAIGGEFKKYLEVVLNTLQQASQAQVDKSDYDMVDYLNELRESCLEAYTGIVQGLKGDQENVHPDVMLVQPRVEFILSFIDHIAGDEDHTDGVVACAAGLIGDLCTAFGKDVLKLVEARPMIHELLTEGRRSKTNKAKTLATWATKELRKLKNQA
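Inhibition scored from the CFP 486 nm/YFP 530 nm FRET ratio 45 min after adding 0.125 microM importin beta to 50 nM Rango biosensor preincubated 5 min with compound (room temperature, PBS with DTT, Tween-20, BSA). No-importin wells as positive control.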
miR-21 reporter – miR-21 reporter, rising signal | 340,000 tested, under 10 active | Potency, µM (highest dose often 38.3 µM), without a hit: at the top dose reporter change, positive = more light | HeLa miR-21 FLuc reporter, luciferase, 48 h; active = well fitted rising curve with a large enough effect; inconclusive = small, poorly fitted or top-dose-only effect; inactive = no such curve, though single readings can be large or run the other way;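 further: % of control where 0% means no effect; miR-21 action dims this reporter so a rising signal means less miR-21 action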
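HeLa miR-21-FLuc reporter line, endogenous miR-21; 2000 cells/well in DMEM/10% FBS; compound titration up to ~40uM final, 48 h, 37 degree Celsius; luciferase detection reagent, 15 min lysis, CCD luminescence.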
GLA inh pH 4.5 – inhibitors of human alpha-galactosidase A at pH 4.5. activity change, negative = inhibition, % at 105 µM. 230,000 tested, under 10 active. P06280. AID 1467. purified enzyme, 4-MU-alpha-Gal fluorescence, pH 4.5; inconclusive = small, poorly fitted or top-dose-only inhibition, or a rising curve; inactive = flat fitted curve, though single readings scatter; no compound was filed as active;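 further: 0% = full activity with enzyme and -100% = basal without enzyme; dose as in the result columns while the protocol names 77 µM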
Starred values were filed as active, the others as inactive; ? = inconclusive; · = no result given; & = joins results of further samples.

SMILES	Rango release inh	Rango complex inh	miR-21 reporter	GLA inh pH 4.5
COC(=O)CCSc1cc([N+](=O)[O-])cc2c1c(C1OCCO1)nn2-c1ccccc1	?	?	-10.0%	-6.0
CCN(CC)c1ccc(/C=N\NC(N)=O)cc1	-12.6%	5.4%	-41.0%	-6.9
Cc1nc(C)c(C(=O)Nc2ccc(C)c(F)c2)o1	18.6%	4.2%	-6.9%	-3.4
CC(C)(Oc1ccc(Cl)cc1)C(=O)NCc1n[nH]c(=O)c2ccccc12	-6.1%	0.4%	·	·
CCCc1nc([N+](=O)[O-])c(S(=O)(=O)c2ccccc2)n1CC(C)C	4.1%	-1.0%	?	4.5
CC1CN(c2cc(-c3ccccc3)c3ccccc3n2)CC(C)O1 (stereo not given)	6.7%	0.5%	7.3%	1.4
CN(C)/C=C1\C(=O)Nc2ccccc21	6.3%	0.0%	-5.8%	-7.3
COc1ccc(OCCOCC(O)CN2CCOCC2)cc1 (stereo not given)	?	-0.6%	0.1%	1.0
CC(=O)C1=C(C)N(Cc2ccccc2)C(=O)N[C@H]1CCc1ccccc1	-6.5%	0.3%	8.1%	6.0&-5.3
CCN1C(=O)/C(=C2/C=Cc3ccccc3N2C)OC1=S	-8.5%	4.5%	-42.8%	0.1
Cc1cccc(NC(=O)c2ccc(NCC3CCCO3)c([N+](=O)[O-])c2)c1 (stereo not given)	-10.1%	-1.1%	-27.3%	-4.9
O=C(O)CCN1C(=O)/C(=C/c2ccc(-c3nc4ccccc4s3)o2)SC1=S	?	?	-13.3%	3.1
CCOC(=O)C(=O)Nc1ccc(S(=O)(=O)N2CCOCC2)cc1OC	11.8%	1.2%	0.0%	6.9
CCc1ccc(NC(=O)CSc2nnc(Cc3cccn3C)n2-c2ccc(OC)cc2)cc1	1.0%	3.9%	2.1%	-1.1
Cc1oc(-c2cccc(C(F)(F)F)c2)nc1CN1CCN(c2ccccn2)CC1	-9.5%	3.4%	-0.1%	-7.4
CCOC(=O)c1cc(CC)sc1NC(=O)c1cc(OCC)c(OCC)c(OCC)c1	1.7%	1.7%	0.2%	8.5
Oc1ccc(N=Cc2c(O)ccc3ccccc23)cc1	?	?	15.2%	7.1
CCSc1nc(C)nc2sc(C)c(C)c12	-8.9%	-1.0%	2.0%	-19.6
CCCCNC(=O)CCC(=O)Nc1ccc2nc(N3CCCCC3)cc(C)c2c1	-14.2%	-4.7%	-48.2%	?
COc1cccc(CN2C(=NC(=O)C3CC3)SC3CS(=O)(=O)CC32)c1 (stereo not given)	-4.0%	0.2%	-0.3%	·
CCOc1ccc(S(=O)(=O)n2nc(C)cc2C)cc1	0.0%	-3.9%	0.4%	·
CCOCc1nnc(NC(=O)COC)s1	1.5%	-0.2%	-0.1%	-11.6
CCN(CC)c1nc(N2CCN(C)CC2)nc2ccccc12	3.9%	-2.0%	-10.0%	·
C(=C\c1ccncc1)/c1ccccc1	-4.6%	-3.5%	-25.4%	-4.3
O=C(CS(=O)(=O)c1ccc(F)cc1)Nc1nnc(-c2cccs2)o1	?	-0.3%	·	·
N#CC1CN(C(c2ccccc2)c2ccccc2)C1	-4.4%	0.2%	1.8%	-6.2
CSc1nc(N(C)C)nc(N(C#N)CCOC(C)=O)n1	-4.5%	0.2%	-1.0%	-4.4
CC(=O)Nc1ccc(C(=O)OCC(=O)c2cccc([N+](=O)[O-])c2)cc1	0.9%	7.7%	-4.8%	-6.2
O=C(NC1CCN(C(=S)Nc2ccccc2Cl)CC1)C1CCCCC1	?	0.0%	-0.5%	·
Cn1c(SCC(=O)Nc2ccc(N3CCOCC3)cc2)nnc1-c1ccccc1	-15.4%	1.1%	-2.5%	-13.9
CC(C)(C)N1C(=O)[C@H]2[C@@H](c3ccc(Br)cc3)N3C(=O)N(c4cccc(Cl)c4)C(=O)[C@@]3(C)[C@H]2C1=O	-3.4%	2.7%	·	·
CCn1cc(CCC(=O)NCCc2ccccc2)c2ccccc21	30.5%	-6.6%	-20.3%	·
Cc1ccc2cc(CCNS(=O)(=O)c3ccc(F)cc3)c(=O)[nH]c2c1	-17.6%	-1.6%	10.5%	5.0
CCCc1nnc(NC(=O)CCC(=O)NC2CCCCC2)s1	1.5%	0.0%	-2.6%	·
Cc1ccc2c(cnn2C(=O)CCC(=O)N2CCCCC2C)c1 (stereo not given)	-16.0%	-1.1%	-1.0%	·
CCC(C)NC(=O)CN1C(=O)CSc2ccc(S(=O)(=O)N3CCCC3)cc21 (stereo not given)	26.4%	1.2%	-0.6%	·
Cc1ccc(S(=O)(=O)Nc2cccc(C(=O)NCC(c3ccco3)N3CCCC3)c2)cc1F (stereo not given)	9.8%	1.3%	·	·
CCC1=C(OC(=O)N(CC)CC)N2C(=O)OC(=NCCc3c[nH]c4ccccc34)[C@]2(C)[C@H]2C1=CC[C@H]1C(=O)N(C)C(=O)[C@H]12	0.4%	-3.5%	9.3%	-18.8&0.2
C[C@@H]1O[C@@H](O[C@H]2[C@H](O[C@H]3C[C@]4(C)C(C[C@@H](O)C5C([C@]6(C)CC[C@@H](C(C)(C)O)O6)CC[C@]54C)[C@@]4(C)CC[C@H](O)C(C)(C)C34)O[C@H](CO)[C@@H](O)[C@@H]2O)[C@H](O)[C@H](O)[C@H]1O (stereo not given in full)	11.3%	0.2%	·	·
Cc1nnnn1/C(=C\c1ccccc1)C(=O)OCC(=O)Nc1cccc(S(=O)(=O)N(C)C)c1	-15.1%	?	·	·
CC(C)c1ccc2c(c1)CC[C@H]1[C@](C)(CN)CCC[C@]21C	-11.5%&-8.9%	0.5%&0.7%	·	-0.9
Cc1ccc(S(=O)(=O)c2ncccc2[N+](=O)[O-])cc1	-14.4%	0.7%	?	·
CSCCC(NC(=O)c1cccc(C)c1)C(=O)OCC(=O)Nc1c(C)nn(-c2ccccc2)c1C (stereo not given)	1.2%	-1.5%	·	·
O=C(Nc1ccccc1C(=O)Nc1ccc2c(c1)OCO2)c1ccco1	5.6%	0.0%	-12.2%	5.3
CCO/C(C)=C1\N=C(c2ccc(Cl)cc2)OC1=O	1.5%	2.9%	-4.5%	0.2
COC(=O)c1sc2cc(=O)n(-c3cccc(C(F)(F)F)c3)nc2c1O	20.9%	3.2%	1.4%	0.3
O=C(O)c1ccc(Cn2cnc3c(=O)[nH]cnc32)cc1	8.4%	3.9%	·	·
COc1ccc(CN(C)C2CCCCC2)cc1	-8.0%	2.2%	0.3%	-1.0
COc1ccc(NC(=O)C/C(C)=N/NC(=O)C(=O)NC2CCCCC2)c(OC)c1	-28.9%	6.5%	3.5%	-1.6
CC(=O)c1cccc(N2Cc3ccccc3C2=NC(=O)CCl)c1	-8.1%	-2.1%	-1.7%	4.1
Further records.
SMILES	Rango release inh	Rango complex inh	miR-21 reporter	GLA inh pH 4.5
CCOC(=O)N1CCC(NC(=O)c2ccc(OC)c(CN3CC(=O)N4CCCC4C3=O)c2)CC1 (stereo not given)	-0.3%	0.0%	-8.0%	0.6
CCn1nc(C(=O)NNC(=O)COc2ccc(OC)cc2)c2ccccc2c1=O	1.6%	3.1%	1.0%	-0.5
O=C(CSc1nccc(=O)[nH]1)Nc1ccc(Oc2ccccc2)cc1	-5.7%	-0.5%	-3.1%	·
Cc1ccc(-c2nnc(NC(=O)Cc3ccc(F)cc3)o2)c(C)c1	0.5%	-1.7%	-1.7%	·
Cn1cc(C(=O)N/N=C/c2cccc(O)c2)ccc1=O	-6.2%	5.9%	-2.2%	-1.3
COc1ccc(C2c3c(ncn(CCCN4CCOCC4)c3=N)Oc3ccc4ccccc4c32)cc1OC (stereo not given)	3.7%	0.7%	-14.7%	-7.0
Cc1ccc(Cl)cc1N1CCN(S(=O)(=O)c2ccc(-c3ccc(=O)[nH]n3)o2)CC1	-1.6%	5.5%	-5.1%	·
COc1ccc(N(C)S(=O)(=O)c2cccc(C(=O)Nc3nnc(C4CC4)s3)c2)cc1	1.3%	0.5%	1.7%	-1.3
O=C(COC(=O)C1=COCCO1)NCCCc1ccccc1	-1.4%	-1.6%	-20.6%	7.8
COc1cccc(CC(NC(C)=O)C(=O)NC2CCN(C(=O)NCc3ccccc3)CC2)c1 (stereo not given)	-5.2%	-1.4%	-5.0%	·

Part of the list above, with two lines to a compound:
Below each compound – Rango release inh, Rango complex inh, miR-21 reporter, GLA inh pH 4.5
- Cc1oc(-c2cccc(C(F)(F)F)c2)nc1CN1CCN(c2ccccn2)CC1
 : -9.5%, 3.4%, -0.1%, -7.4
- CCOC(=O)c1cc(CC)sc1NC(=O)c1cc(OCC)c(OCC)c(OCC)c1
 : 1.7%, 1.7%, 0.2%, 8.5
- Oc1ccc(N=Cc2c(O)ccc3ccccc23)cc1
 : ?, ?, 15.2%, 7.1
- CCSc1nc(C)nc2sc(C)c(C)c12
 : -8.9%, -1.0%, 2.0%, -19.6
- CCCCNC(=O)CCC(=O)Nc1ccc2nc(N3CCCCC3)cc(C)c2c1
 : -14.2%, -4.7%, -48.2%, ?
- COc1cccc(CN2C(=NC(=O)C3CC3)SC3CS(=O)(=O)CC32)c1 (stereo not given)
 : -4.0%, 0.2%, -0.3%, ·
- CCOc1ccc(S(=O)(=O)n2nc(C)cc2C)cc1
 : 0.0%, -3.9%, 0.4%, ·
- CCOCc1nnc(NC(=O)COC)s1
 : 1.5%, -0.2%, -0.1%, -11.6
- CCN(CC)c1nc(N2CCN(C)CC2)nc2ccccc12
 : 3.9%, -2.0%, -10.0%, ·
- C(=C\c1ccncc1)/c1ccccc1
 : -4.6%, -3.5%, -25.4%, -4.3
- O=C(CS(=O)(=O)c1ccc(F)cc1)Nc1nnc(-c2cccs2)o1
 : ?, -0.3%, ·, ·
- N#CC1CN(C(c2ccccc2)c2ccccc2)C1
 : -4.4%, 0.2%, 1.8%, -6.2
- CSc1nc(N(C)C)nc(N(C#N)CCOC(C)=O)n1
 : -4.5%, 0.2%, -1.0%, -4.4
- CC(=O)Nc1ccc(C(=O)OCC(=O)c2cccc([N+](=O)[O-])c2)cc1
 : 0.9%, 7.7%, -4.8%, -6.2
- O=C(NC1CCN(C(=S)Nc2ccccc2Cl)CC1)C1CCCCC1
 : ?, 0.0%, -0.5%, ·

Later entries:
SMILES	Rango release inh	Rango complex inh	miR-21 reporter	GLA inh pH 4.5
O=C1CCC[C@@H]2Cc3nc4ccccc4cc3[C@@H]3CCN1[C@H]23	-11.4%	0.5%	·	·
Cc1nc2ccccc2n1CC(=O)NCc1ccccc1	0.4%	-3.1%	0.7%	0.6
Cc1ccc(C(=O)COC(=O)CCCC(=O)Nc2cc(C(F)(F)F)ccc2Cl)cc1C	-2.0%	-0.7%	-9.7%&-7.8%	-24.5
COc1ccc(C(=O)OCC(=O)Nc2ccc(Cl)c(C(F)(F)F)c2)c(OC)c1OC	5.0%	-0.8%	-1.9%	-18.6
CC(=O)NNS(=O)(=O)c1ccccc1[N+](=O)[O-]	-5.2%	1.0%	0.3%	-3.8
COc1ccc(NC(=O)Cc2cccc(F)c2)cc1S(=O)(=O)Nc1ccccc1Cl	7.3%	-5.1%	13.5%	5.3
Cc1cc(C(=O)CSc2nnc(-c3ccccc3)o2)c(C)n1CC1COc2ccccc2O1 (stereo not given)	-7.2%	0.0%	3.9%	-5.8
CC(CC(=O)OCC(=O)NCc1ccc(Cl)cc1)c1ccccc1 (stereo not given)	23.4%	0.6%	·	·
CCN1CCSc2ccc(C(=O)NCc3cccc(F)c3)cc21	-11.2%	-0.5%	-7.2%&11.0%	·
O=S(=O)(Cc1ccccc1)N1CCCCCC1	1.0%	-3.2%	-4.4%	-0.8

Some of the compounds tested; count on the stated rates, not on these rows.
